TRPML1 ag: human mucolipin-1 channel agonism; 410,000 compounds, 0.12% hits; AID 624414; TRPML1-expressing cells, Ca2+ dye fluorescence, FDSS; host cell line not named in the record; reference of the full effect not given here; activation, % (test concentration not listed); in the data active = activation above about 50%; inconclusive = about 30% to 50%; inactive = below about 30%; note: 0% is about no effect; the text of the record puts the active cut at 80%
Target sequence (Q9GZU1 whole entry, looked up): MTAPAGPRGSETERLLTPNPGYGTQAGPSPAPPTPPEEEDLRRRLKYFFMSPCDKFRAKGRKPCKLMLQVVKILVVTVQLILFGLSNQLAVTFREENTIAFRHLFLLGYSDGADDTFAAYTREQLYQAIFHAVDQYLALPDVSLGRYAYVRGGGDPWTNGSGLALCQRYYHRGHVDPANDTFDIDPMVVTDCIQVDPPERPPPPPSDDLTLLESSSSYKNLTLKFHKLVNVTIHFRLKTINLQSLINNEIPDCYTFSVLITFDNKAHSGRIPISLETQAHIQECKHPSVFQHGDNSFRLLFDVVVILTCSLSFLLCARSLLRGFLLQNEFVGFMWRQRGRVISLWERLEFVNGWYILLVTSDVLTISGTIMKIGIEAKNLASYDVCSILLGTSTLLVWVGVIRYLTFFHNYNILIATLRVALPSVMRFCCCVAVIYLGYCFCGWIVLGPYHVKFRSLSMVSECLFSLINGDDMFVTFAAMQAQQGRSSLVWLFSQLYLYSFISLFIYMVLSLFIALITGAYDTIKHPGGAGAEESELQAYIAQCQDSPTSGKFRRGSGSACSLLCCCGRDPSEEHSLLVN
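Cells: TRPML1-DL, 1X Tet inducer, ~16 h at 37 degrees C/5% CO2. Dye: ABD Ca8 no-wash + quencher, 45-90 min RT. Read: 10 s baseline, compound add, 110 s agonist phase; 54-4 EC80 (4uM final), 110 s antagonist phase.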
Sfp inh: Sfp phosphopantetheinyl transferase inhibition; AID 1490; Biochemical Sfp PPTase activity, qHTS; Potency, µM, inactives show max response, negative = inhibition, usual class: inhibitors; Q9F4F7; 310,000 compounds, 3.5% hits; active = well fitted inhibition curve with a large enough effect; inconclusive = small, poorly fitted or top-dose-only effect, or another doubt; inactive = no such curve, though single readings can be large or run the other way;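 note: the enzyme is Sfp with the accession as filed and its product quenches rhodamine fluorescence; potency is the fitted concentration of half-maximal effect; 0% = enzyme reaction without inhibitor and -100% = no enzyme wells; top concentration of the series not given in the record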
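Fluorescence-quenching assay: 15 nM Sfp-PPTase preincubated 15 min at room temperature with compound, then 5 uM rhodamine-CoA and 12.5 uM BHQ-2-labelled YbbR peptide added. Fluorescence (ex 525/em 598 nm) read at start and after 30 min; difference gives rate.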
TRPML1 blocker: human mucolipin-1 channel inhibition | Q9GZU1 | 390,000 compounds, 0.02% hits | TRPML1-inducible cells, Ca2+ dye fluorescence, FDSS; stronger effect = lower value; inhibition of EC80 agonist-evoked calcium signal | activity change, negative = inhibition, % (no concentration beside the values); in the data active means activity change below about -50%; inconclusive means about -30% to -50%; inactive means above about -30%;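 note: stimulus is agonist 54-4 at its EC80 concentration; % is set by controls: 0 for no effect and ±100 for the full control effect; compound concentration not given in the record; the text of the record puts the active cut at -80%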
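Calcium fluorescence in TRPML1-DL cells induced overnight with Tet: a 110 s read after compound pin addition, then a 110 s antagonist read after challenge with 54-4 at 4 uM final (EC80).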
PINK1 modulator: modulators of PINK1 expression; PINK1 immunofluorescence, high-content cytometry, 24 h; Potency, µM (doses to about 76.6 µM), inactives show at the highest dose activation (PINK1 increase), actives largely listed as activators; 410,000 compounds, 0.2% hits; AID 624263; active = well fitted activation curve with a large enough effect; inconclusive = small, poorly fitted or top-dose-only effect; inactive = flat fitted curve, though single readings scatter; cell line not stated here;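 note: potency is the fitted concentration of half-maximal effect; % of control where 0% means no effect; nearly all actives have a fitted effect of over 65% in size; a mitochondrial uncoupler was the plate control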
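Compound titrations (5 concentrations, 24 h) on a stable cell line; DMSO and CCCP controls. Endpoint: fixed-cell PINK1 immunofluorescence with mitochondrial, cell and nuclear markers, scanned by microplate cytometer.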
TRPV1 PAM: potentiators of human vanilloid receptor 1 (TRPV1) | Q8NER1 | TRPV1-expressing cells, Fluo-8 calcium influx, capsaicin EC20 potentiation; host cell line not named in the record; control for the full effect not named in the record | potentiation, % at 8.33 µM | 320,000 compounds, 0.02% hits; active means potentiation above 80%; inconclusive means 30% to 80%; inactive means below 30%; note: 0% is about no effect
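TRPV1-expressing cells were cultured overnight at 35.5C and loaded with Fluo-8 calcium dye for 40 to 90 min at room temperature. After a 10 s baseline, compound was added and calcium influx was read kinetically for 3 min (ex 480/em 520 nm).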
Menin MLL FP FL: menin-MLL binding inhibition, fluorescein peptide | FP activity change, % at 61.4 µM | Fluorescence polarization, fluorescein-MLL peptide displacement from menin | AID 1766 | 290,000 tested, under 10 active; inconclusive = falling polarisation curve, or a change in total fluorescence; inactive = total fluorescence flat and polarisation flat or rising; no compound was filed as active; the % refers to the polarisation; negative = inhibition;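 note: % of control where 0% means no effect; inhibitors lower the polarisation; unlabelled MLL peptide was the positive control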
ClpP mod: qHTS Assay for Activators of ClpP. ATP-dependent Clp protease proteolytic subunit (Bacillus subtilis (strain 168)), P80244. purified B. subtilis ClpP, FRET peptide cleavage, 20 min. Potency, µM (doses to about 57.5 µM), for the others: at the top dose activity change, negative = active. 340,000 compounds, 1.9% hits. AID 651965, 2013; active = well fitted falling curve with a large enough effect; inconclusive = small, poorly fitted or top-dose-only effect; inactive = no such curve, though single readings can be large or run the other way; note: potency is the fitted concentration of half-maximal effect; the source files actives as falling curves though it sought activators and does not explain the sign; nearly all actives have a fitted effect of over 65% in size; many hits overshoot -100%
Target sequence (P80244 whole entry, looked up): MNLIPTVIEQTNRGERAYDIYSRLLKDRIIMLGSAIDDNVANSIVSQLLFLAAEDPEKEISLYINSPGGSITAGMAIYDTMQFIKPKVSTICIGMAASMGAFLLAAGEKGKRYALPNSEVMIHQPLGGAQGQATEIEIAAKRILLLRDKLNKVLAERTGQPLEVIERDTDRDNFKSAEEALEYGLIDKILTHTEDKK
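Buffer: 100 mM Tris/HCl pH8, 100 mM KCl, 0.05% low protease BSA, 2.5% glycerol, 0.01% Tween-20. ClpP 10 microg/mL final; 20 min RT; delta FRET normalized to ADEP and DMSO controls.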
Starred values were filed as active, the others as inactive; u = inconclusive; x = no result given; & = joins results of further samples; [ ] = dose if it differs, or a comment.

A first look:
canonical_smiles | TRPML1 ag | Sfp inh | TRPML1 blocker | PINK1 modulator | TRPV1 PAM | Menin MLL FP FL | ClpP mod
CCCC(c1nnnn1CCOC)N(Cc1cc2cc(C)c(C)cc2[nH]c1=O)CC1CCCO1 (centres undefined) | 0.2 | 10µM* | -1 | 6.0%[38.3 µM] | 6 | -2.8 | -6.1%
COc1ccc(CC(=O)Nc2ccccc2C(=O)NCCc2ccccc2)cc1 | 2.2 | 7% | 3 | 0.4% | -15 | 3.3 | -5.4%

Main list (from the top)
canonical_smiles | TRPML1 ag | Sfp inh | TRPML1 blocker | PINK1 modulator | TRPV1 PAM | Menin MLL FP FL | ClpP mod
CCCC(c1nnnn1CCOC)N(Cc1cc2cc(C)c(C)cc2[nH]c1=O)CC1CCCO1 (centres undefined) | 0.2 | 10µM* | -1 | 6.0%[38.3 µM] | 6 | -2.8 | -6.1%
COc1ccc(CC(=O)Nc2ccccc2C(=O)NCCc2ccccc2)cc1 | 2.2 | 7% | 3 | 0.4% | -15 | 3.3 | -5.4%
O=C(O)c1cc(C2CC2)nn1-c1ccccc1 | -1.3 | 16% | -10 | 0.6% | 4 | 3.1 | -1.0%
CC(C)(C(=O)N1CCC1(C)C(=O)NS(=O)(=O)c1cccc(Cl)c1)c1ccccc1 (centres undefined) | -0.5 | x | x | -0.3% | x | x | -3.4%
Cc1cccc(OC(=O)CSc2nnc(-c3ccc4c(c3)OCO4)o2)c1C | 0.9 | x | 5 | 0.9% | x | x | 238%
O=c1c2cc3c(cc2[nH]c(=S)n1C1CCN(Cc2ccccc2)CC1)OCO3 | -0.5 | 9% | 3 | 0.4% | -2 | 0.9 | -1.1%
CCC1(C(=O)c2ccccc2)C(c2cccc([N+](=O)[O-])c2)C1(C(=O)OC)C(=O)OC (centres undefined) | 0.3 | 13% | 1 | -2.6% | -3 | 5.6 | 1.2%
Cc1ccc(N=Nc2c(C)[nH]n(-c3ccccc3)c2=O)c(C)c1 | -0.6 | -19% | 2 | 1.0% | 5 | -2.9 | x
CC(C)[C@@H](N)C(=O)N/N=C/c1ccc2nccnc2c1 | -0.1 | -22% | 4 | 1.2% | -10 | -0.9 | -2.5%
O=C1C=C(O)c2cccc3cccc1c23 | 1.0 | -4% | -3 | 0.7% | 28 | u | x
CCCCOc1ccc(Nc2cc(Cl)ccc2C(=O)O)cn1 | 1.3 | 10% | 7 | 2.0% | 27 | -1.0 | x
C=CCNC(=O)N1CCC(n2nccc2NC(=O)CCCc2ccccc2)CC1 | 0.2 | 10% | 3 | -0.2% | 3 | x | -3.6%
Cc1ccc(N(CC2CO2)S(=O)(=O)c2ccc([N+](=O)[O-])cc2)cc1 (centres undefined) | -0.1 | 9% | -8 | 5.9% | 16 | 22 | x
COc1cc(C(=O)N2CCN(c3ccccc3OC)CC2)c([N+](=O)[O-])cc1OC | 0.1 | 12% | 30 | 2.1% | 15 | -0.9 | x
CCOC(=O)CNC(=O)c1cn(CC(C)C)c(=O)c2cc(OC)c(OC)cc12 | 0.6 | 4% | 1 | -2.0% | -7 | -0.3 | -29%
Cc1cc(C)n(-c2nc3c(c(=O)n(C)c(=O)n3C)n2CCO)n1 | 0.0 | 17% | -12 | 1.2% | 11 | -2.9 | -1.3%
c1cncc(-c2nc3ccccc3o2)c1 | 2.4 | 4% | -18 | -1.3% | -6 | u | -24%
Cc1ccc(CNC(=O)c2cc(=O)c3cc(C)ccc3o2)cc1 | 1.8&-0.6 | 0% | 4&-5 | 5.9%&1.6% | u | 2.6 | u
CSc1ncccc1C(=O)OCC(=O)Nc1ccc2c(c1)CCC2 | 2.2 | x | 19 | -0.3% | 9 | x | -2.1%
COc1ccc(C(=O)CCc2ccccc2)cc1 | x | 3% | x | 0.2% | -16 | 0.9 | -0.7%
COc1ccc(-n2c(CN3CCN(c4ccccn4)CC3)nc3ccc([N+](=O)[O-])cc3c2=O)c(OC)c1 | -0.7 | 5% | 39 | 0.0% | -14 | 0.0 | -7.6%
N#Cc1c(N)nc(SCC(=O)C23CC4CC(CC(C4)C2)C3)c(C#N)c1-c1ccc(Cl)cc1 | -0.1 | 5% | 40 | 6.2% | -5 | 9.4 | -15%
COc1ccc(C2CC(=O)C(C=NCCO)=C(O)C2)cc1OC (centres undefined) | -1.0 | 24% | 3 | 0.2% | -27 | -0.1 | -4.2%
c1ccc2c(c1)c1c3n2CCNC3CCC1 (centres undefined) | 1.0 | 79µM* | -1 | 1.6% | u | u | -12%
C(=N\c1nccs1)/c1cccnc1 | 0.6 | u | 16 | -1.1% | 22 | 0.4 | 1.2%
COc1cccc(CCC(=O)N2CCC(n3nccc3NC(=O)C3CCOC3)CC2)c1 (centres undefined) | 0.2 | 12% | -6 | 0.0% | -6 | x | -2.6%
COc1ccc(NC(=S)N2CCN(c3ncccn3)CC2)cc1 | -0.2 | 3% | 25 | 0.0% | 12 | 1.7 | x
NS(=O)(=O)c1cccc(NC(=O)CSc2nc3ccccc3c(=O)n2CC2CCCO2)c1 (centres undefined) | 0.6 | x | -9 | -1.2% | -9 | x | x
Cc1cc(F)ccc1S(=O)(=O)Nc1ccc(O)c(Sc2ncn[nH]2)c1 | 0.0 | u | 20 | -0.1% | 6 | -2.0 | x
O=C(COC(=O)c1ccc[n+]([O-])c1)Nc1ccc(Cl)cc1[N+](=O)[O-] | 0.2 | x | 5 | -1.6% | -15 | x | -1.9%
N#CCC(=O)Nc1ccc(C(=O)Nc2cccnc2)cc1 | 0.6 | 7% | 16 | 0.1% | 15 | 7.1 | -2.5%
Oc1ccc2oc3c(c2c1/C=N/n1cnnc1)CCCC3 | -1.6 | 9% | 2 | -5.5% | 27 | -8.6 | -3.2%
Cc1nn2c(=O)c(NC(=O)c3ccc(Cl)cc3)cnc2s1 | 0.0 | 11% | -13 | -0.9% | -9 | 2.3 | x
CC(=O)C[C@H]1c2ccccc2S(=O)(=O)N1C1CCCCC1 | 0.1&-1.0 | x | -15 | 0.2% | x | x | 0.6%&0.0%
Cc1cccc(NC(=O)CN(C)C(C)C(=O)Nc2ccc(S(=O)(=O)N3CCCC3)cc2)c1C (centres undefined) | 0.4 | x | 10 | 0.7% | 6 | x | -1.8%
Cc1c(NC(=O)C(C)Sc2ccc3ccccc3n2)c(=O)n(-c2ccccc2)n1C (centres undefined) | -0.5 | 8% | 41 | -1.9% | 5 | -3.6 | 1.2%
CN(Cc1cn(Cc2ccccc2)nc1-c1ccc2c(c1)OCO2)Cc1nccn1C | 2.2 | 19% | -1 | -0.4% | -1 | -5.7 | x
Cc1nn(C)c(C)c1CN(C)C(=O)C1c2ccccc2Oc2ccccc21 | 0.8 | 1% | -13 | -1.3% | -8 | -1.4 | 0.3%
S=c1[nH]nc(Cc2cccs2)n1-c1ccccc1 | -0.9 | 8% | 12 | -3.4% | -4 | -0.6 | 2.0%
Cc1ccc(CSc2nc3c(c(=O)[nH]c(=O)n3C)n2CCC(C)C)cc1 | 1.8 | 0% | 35 | 2.4% | 13 | -0.6 | -0.5%
COc1ccc(NC(=O)CN(c2ccccc2OC)S(C)(=O)=O)c(OC)c1 | -0.7 | x | -12 | -1.1% | x | x | -1.5%
COc1ccccc1N1CCN(C(=O)CNC(=O)c2ccc(Cl)cc2Cl)CC1 | -0.6 | 18% | 20 | -0.4% | 2 | 4.1 | x
CCCOC(=O)c1ccc(Nc2nc3ccccc3nc2-n2nc(C)cc2C)cc1 | 0.1 | x | -6 | 0.5% | x | x | -6.8%
COc1ccc(-c2cncnc2-c2ccc(OC)cc2O)cc1 | 0.8 | 2% | 6 | -3.1% | -14 | -3.2 | -1.4%
Cc1ccccc1C(=O)NCC(=O)OC(C)C(=O)NC(C)CCc1ccccc1 (centres undefined) | -1.6 | x | -3 | 0.2% | -12 | x | 0.6%
CC(C)CC1NC(=O)N(CC(=O)NC2CCCc3ccccc32)C1=O (centres undefined) | -0.7 | 11% | -14 | 2.1% | 7 | 1.8 | 28µM*
COc1cccc(CN(C)CCCn2ccc(NC(=O)OCc3ccccc3)nc2=O)c1 | -0.7 | x | 14 | 0.1% | x | x | 2.3%
CCN(CC)S(=O)(=O)c1ccc(N(C)Cc2cccc(OC)c2OC)nc1 | 0.6 | 4% | -5 | -1.1% | -15 | 6.2 | 1.3%
Cc1c(CCOC(=O)CC23CC4CC(CC(C4)C2)C3)sc[n+]1Cc1ccccc1 | 1.3 | 3% | 39 | 27% | 23 | 0.7 | 1.5%
CCCCN(C(=O)c1ccc2c(c1)OCO2)c1c(N)n(CCCC)c(=O)[nH]c1=O | -0.6 | x | -3 | -1.6% | -1 | x | x
CCN(C(=O)COC(=O)c1c(C)nsc1NC)c1ccccc1 | 1.0 | x | -4 | 0.6% | -11 | x | 2.2%
CCC(=O)N1CCN(c2ccc(NC(=O)COc3ccc(C)cc3C)cc2)CC1 | -0.6 | -3% | 10 | -1.3% | 2 | 1.5 | x
COc1cccc(-c2nc3c(c(SCc4ccccc4)n2)Cc2c(CO)cnc(C)c2O3)c1 | -0.6 | x | 70 | 1.5% | x | x | -2.3%
O=C(c1ccccn1)N(Cc1ccco1)C1(C(=O)NC2CCCC2)CCCCC1 | 0.2 | 8% | -9 | -0.2% | -10 | 3.8 | 2.5µM*
O=C(COC(=O)c1c2c(nc3ccccc13)/C(=C/c1cccc([N+](=O)[O-])c1)CCC2)NC1CCS(=O)(=O)C1 (centres undefined) | 0.3 | 10% | -20 | -0.2% | 3 | 7.8 | -4.0%

3 records drawn at random from the list so far, as already listed:
canonical_smiles | TRPML1 ag | Sfp inh | TRPML1 blocker | PINK1 modulator | TRPV1 PAM | Menin MLL FP FL | ClpP mod
N#Cc1c(N)nc(SCC(=O)C23CC4CC(CC(C4)C2)C3)c(C#N)c1-c1ccc(Cl)cc1 | -0.1 | 5% | 40 | 6.2% | -5 | 9.4 | -15%
O=C1C=C(O)c2cccc3cccc1c23 | 1.0 | -4% | -3 | 0.7% | 28 | u | x
COc1cccc(CCC(=O)N2CCC(n3nccc3NC(=O)C3CCOC3)CC2)c1 (centres undefined) | 0.2 | 12% | -6 | 0.0% | -6 | x | -2.6%
